VACV mCherry inh: inhibitors of vaccinia virus infection (mCherry reporter signal) | Vaccinia virus mCherry reporter infection, fluorescence; about a quarter of the inactives have no number | Potency, µM (series often up to 36.5 µM), for the others: at the top dose activity change, negative = inhibition, most hits filed as inhibitors | 310,000 compounds, 0.63% hits | AID 720579; active = well fitted inhibition curve with a large enough effect; inconclusive = small, poorly fitted or top-dose-only effect; inactive = no such curve, though single readings can be large or run the other way; tested in A549 cells; further: nearly all actives have a fitted effect of over 35% in size; inactives centre near -10
Vaccinia Venus: inhibitors of vaccinia virus (Venus reporter). Potency, µM (doses to about 36.5 µM), for inactives: at the top dose activity change, negative = inhibition, actives largely listed as inhibitors. Vaccinia virus Venus reporter expression, fluorescence. 330,000 compounds, 0.46% hits; active means well fitted inhibition curve with a large enough effect; inconclusive means small, poorly fitted or top-dose-only effect; inactive means no such curve, though single readings can be large or run the other way; tested in A549 cells; further: nearly all actives have a fitted effect of over 30% in size; inactives centre near -10
Starred values were filed as active, the others as inactive; i = inactive; ? = inconclusive; . = no result given; [ ] = dose if it differs, or a comment. On the % scale 0 is the no-effect control and ±100 the full control effect; potency means the concentration at half of the fitted maximal effect. Compounds as they come. Share with any hit: about 0.82%.

Molecule | VACV mCherry inh | Vaccinia Venus
Cc1ccc(-n2ncc(C(=O)N3CCN(C(=O)c4ccco4)CC3)c2-n2cccc2)cc1 | -13.8% | -14.2%
COc1ccc(CC(N)c2csc(NC(=O)NCc3ccccc3)n2)cc1 (centres undefined) | ? | ?
Cc1ccc(NC(=O)c2ccc([N+](=O)[O-])cc2)cc1S(=O)(=O)N(C)C | -12.3% | -0.7%
Cc1ccc(C(=O)Nc2ccccc2)cc1S(=O)(=O)Nc1ccc(Cl)cn1 | -4.8% | -10.4%
CCCCN1CC(COCc2ccccc2)Oc2cccc(Oc3ccc(OC)cc3)c2S1(=O)=O (centres undefined) | -28.0% | -19.3%
COc1cccc(/C=N/NC(=O)CCc2c(C)n[nH]c2C)c1 | . | -9.2%
COCCN(C(=O)c1csnn1)C(C(=O)NC1CCCCC1)c1ccccc1 (centres undefined) | i | -4.5%
CCN(CC)CCn1c2c(c(SCC(=O)Nc3nc4ccc(C)cc4s3)nc1=O)CCC2 | i | -21.6%
Cc1cccc(C(=O)OCC(=O)N2CC(C)CC(C)C2)c1C (centres undefined) | i | -6.3%
COc1ccc(NC(=O)COc2ccc(C(=O)c3ccc(F)cc3)cc2)cc1S(N)(=O)=O | -25.9% | -9.7%
CN1C(=O)C(=Cc2ccccc2OCc2ccc(Cl)cc2)C(=O)N(C)C1=O | i | -1.1%
O=C1NC(=S)S/C1=C/c1ccc(OC(=O)c2ccco2)cc1 | -14.5% | 19.7%
Cc1ccc(NC(=O)NCCN2CCCCC2)cc1Cl | -11.4% | -10.9%
Cc1ccc(CC(=O)Nc2ccccc2N2CCOCC2)cc1C | . | -19.5%
CC(CN1CCCC1)C(=O)NN (centres undefined) | i | -0.8%
Cc1cccc(-c2nc(CCNC(=O)COc3ccccc3)cs2)c1 | -8.2% | -6.8%
CC(=O)c1ccc(NC(=O)CSc2nnc(NC(=O)c3ccco3)s2)cc1 | i | -8.8%
CCCCN(Cc1cc2cc(OC)ccc2[nH]c1=O)C(=O)COc1ccccc1 | -13.9% | -3.2%
Cc1ccc(C2=NN(C(=O)CCl)C(c3ccco3)C2)o1 (centres undefined) | -28.6% | -5.5%
O=C(Nc1cccc(S(=O)(=O)C(F)F)c1)c1ccc(Cl)c(S(=O)(=O)N2CCOCC2)c1 | i | ?
COc1ccc(Cc2c(Cl)ncnc2Cl)cc1 | -1.9% | -8.9%
CCc1c(C)nc2cc(-c3cc(OC)cc(OC)c3)nn2c1N1CCN(CCN2CCOCC2)CC1 | . | ?
Cc1ccc2oc(-c3ccc(Cl)c(NC(=O)Cc4ccccc4)c3)nc2c1 | -0.8% | 3.2%
Cc1cccc(/C=C/c2onc(C)c2S(=O)(=O)N2CCC(C(=O)N3CCC(C)CC3)CC2)c1 | -19.2% | -10.5%
COc1ccc(CN2CCC(C(=O)Nc3ccc(Oc4ccccc4)nc3)CC2)cc1F | -2.5% | -23.8%
Cc1cccc(CSc2nc(=O)c3c(n2C)NC(=O)CC3c2cc(F)cc(F)c2)c1 (centres undefined) | -9.6% | -11.5%
c1ccc(-c2nc3ccccn3c2NCc2ccc3c(c2)OCO3)cc1 | -10.6% | -9.3%
CCOC(=O)CSC1=NC(=O)/C(=C/c2ccc(OC)cc2)S1 | ? | ?
CC(C)C(=O)Nc1ccc2c3c(cccc13)CC2 | -16.5% | -13.0%
COc1ccccc1OCc1nnc(SCC(=O)Nc2ccc(C)cc2)n1C | . | -11.5%
CCCSc1nsc(NC(=O)C(c2ccccc2)c2ccccc2)n1 | ? | ?
c1coc(CNc2ncnc3c2nc2n3CCCC2)c1 | -27.9% | -19.1%
COc1cc(C(=O)NC(=S)Nc2ccc(Cl)c(C(=O)O)c2)cc(OC)c1OC | -3.5% | -1.0%
COc1ccc(S(=O)(=O)NCCc2csc3nc(-c4ccccc4)nn23)cc1OC | -9.6% | -11.5%
CCOC(=O)c1nnn(-c2nonc2N)c1-c1ccc(F)cc1 | -7.3% | -13.0%
Cc1ccc2oc(-c3cccc(N)c3)nc2c1 | -21.7% | -16.1%
Cc1cc2oc(C(=O)Nc3ccc(S(N)(=O)=O)cc3)c(C)c2cc1Cl | i | -1.0%
CC[n+]1c(/C=C2/C=C(C)CC(C)(C)C2)sc2ccc(OC)cc21 | . | 3.9%
COc1ccc(NC(=O)c2cc3cc(OC)ccc3oc2=N)cc1 | -13.2% | -10.1%
CC(=O)[C@@H]1[C@@H](C(=O)c2ccccc2)[C@]2(C(=O)Nc3ccccc32)[C@H]2C=Cc3cc(F)ccc3N12 | -3.3% | 15.1%
O=C(NCCc1c[nH]c2ccccc12)C(=O)NCC(c1ccco1)N1CCN(c2ccccc2)CC1 (centres undefined) | -8.1% | -5.2%
COc1cc(/C=N/NC(=O)C(=O)N2CCCCCC2)ccc1O | i | -11.5%
O=C(Cn1c(=O)n(CCc2ccccc2)c(=O)c2c3c(sc21)CCCC3)Nc1ccc(F)c(F)c1 | -3.5% | 4.7%
CS(=O)(=O)N(CC(=O)Nc1ccccc1Sc1ccccc1)c1ccc(F)cc1 | -23.5% | ?
CC1(C)CC(=O)C2=C(C1)Nc1nc(SCCN3CCOCC3)[nH]c(=O)c1C2c1cccs1 (centres undefined) | . | -12.1%
CCC(=O)NCCc1nc2cc(NC(=O)c3ccc(Cl)cc3)ccc2n1C | -24.0% | -18.8%
N#CC(=C(/N)Sc1ccccc1N)/C(C#N)=C(\N)Sc1ccccc1N | -13.0%[60.7 µM] | -11.4%
Cc1cc2c(nn1)CCc1c-2no[n+]1[O-] | -56.9% | -54.4%
CC(C)C[C@@H]1COc2cc(N3CCSCC3)ccc2S(=O)(=O)N1 | -0.4% | -8.5%
CC(=O)c1sc(NC(=O)c2ccccc2F)nc1-c1ccccc1 | i | -13.0%

The list goes on:
Molecule | VACV mCherry inh | Vaccinia Venus
O=C(CCn1ccc2cc(S(=O)(=O)N3CCCC3)ccc21)NCc1ccccc1Cl | -8.5% | -21.8%
CCc1sc(N(C(=O)Cc2ccccc2)c2ccc(F)cc2)nc1-c1ccccc1 | . | -25.8%
CCOc1ccccc1NC(=O)c1ccc2c(c1)C(=O)N(CC)C2=O | -17.7% | -18.9%
CCCCOC(=O)Nc1nc2ccccc2s1 | . | -10.0%
Cc1nn(CC(=O)NCCN2CCOCC2)c(C)c1[N+](=O)[O-] | . | -2.3%
CC(C)c1ccc(C2CC(=O)N3CN(C)CSC3=C2C#N)cc1 (centres undefined) | i | 3.1%
C[C@@H]1[C@H](c2ccccc2)OCCS(=O)(=O)N1Cc1ccc(Cl)cc1 | -28.7% | -23.8%
Cc1oc2ccc(O)c(CN3CCCCC3)c2c1C(=O)Nc1cccc(C(F)(F)F)c1 | -21.5% | -15.0%
COc1ccc(S(=O)(=O)n2cnc3cc(C)c(C)cc32)cc1C | -16.6% | -28.6%
CCOc1ccc(NC(=O)Cc2coc3ccc(C)cc23)cc1 | -21.7% | -13.3%

Brought forward from above: five entries, then new ones.
Molecule | VACV mCherry inh | Vaccinia Venus
CC(C)c1ccc(C2CC(=O)N3CN(C)CSC3=C2C#N)cc1 (centres undefined) | i | 3.1%
C[C@@H]1[C@H](c2ccccc2)OCCS(=O)(=O)N1Cc1ccc(Cl)cc1 | -28.7% | -23.8%
Cc1oc2ccc(O)c(CN3CCCCC3)c2c1C(=O)Nc1cccc(C(F)(F)F)c1 | -21.5% | -15.0%
COc1ccc(S(=O)(=O)n2cnc3cc(C)c(C)cc32)cc1C | -16.6% | -28.6%
CCOc1ccc(NC(=O)Cc2coc3ccc(C)cc23)cc1 | -21.7% | -13.3%
COc1ccc2[nH]c3c(c2c1)CCN1C(=O)C(CC(=O)NCc2ccc(OC)c(OC)c2)C[C@H](C(=O)N2CCCCC2)[C@@]31CCc1ccccc1 (some centres undefined) | i | -15.8%
Cc1cc(NS(=O)(=O)c2ccc(NC(=S)NC(=O)c3ccccc3)cc2)no1 | ? | -19.8%
CC(Sc1nnc(C2CC2)n1-c1ccccc1)C(=O)N1CCCC1 (centres undefined) | i | -13.5%
CCOc1ccc2nc(S(=O)(=O)NC(=O)C3(C)CCN3C(=O)c3c(C)noc3C)sc2c1 (centres undefined) | 12.5% | -8.0%
CC(C)CC(=O)Nc1nc2c(c(=O)[nH]1)CCCC2 | -3.9% | -0.1%
COc1cc([N+](=O)[O-])cc(/C=N/NC(=O)Cn2nccc2C)c1O | -28.2% | -2.3%
O=C(O)c1[nH]c2ccc(Cl)cc2c1CC(=O)N1CCN(C(=O)c2ccco2)CC1 | . | -14.2%
Cc1sc2ncnc(SCC(=O)NC3CCS(=O)(=O)C3)c2c1C (centres undefined) | -0.5% | -3.3%
O=C(/C=C\c1ccc2c(c1)OCO2)NC1CC(=O)N(c2ccc(F)cc2)C1 (centres undefined) | -0.4% | -2.8%
COC(=O)CSc1nc(SC)nc2c1sc1nc(-c3ccco3)c3c(c12)CC(C)(C)OC3 | i | -3.2%
Cc1c(NC(=O)CSc2nnc3c4ccccc4n(CCc4ccccc4)c3n2)c(=O)n(-c2ccccc2)n1C | . | ?
CC1CCN(CCCNC(=O)C2CCC(=O)N2C2CCCC2)CC1 (centres undefined) | -12.5% | -1.5%
O=C(N/N=C/c1ccccn1)c1ccc(NC(=O)c2cccc([N+](=O)[O-])c2)cc1 | -11.3% | -13.4%
COC(=O)CCC(=O)N1CCCC(N2CCN(c3ccc(OC)cc3)CC2)C1 (centres undefined) | -29.1% | -17.1%
O=C(C(=NNc1ccccc1)C(=S)Nc1ccccc1)c1ccccc1 | -3.1% | -2.8%
CCOC(=O)N1CCC(c2cc(=O)n3[nH]cc(C(=O)OC)c3n2)CC1 | i | -7.1%
Cc1cc(C(F)(F)F)n2ncc(-c3ccc(F)cc3)c2n1 | -10.6% | 1.2%
CC(=O)N1CCN(C(=O)C2(NC(=O)Nc3ccc(C)cc3)CCCCC2)CC1 | i | -1.7%
COc1cc(C(=O)N2CC(=O)Nc3ccccc32)cc(OC)c1OC | -14.9% | -29.1%
COC(=O)c1nnn(CC(=O)Nc2cccc(OC)c2)c1C(=O)OC | -11.7% | -9.5%
COc1ccccc1S(=O)(=O)Cc1ccc(C(=O)NCc2ccc3c(c2)OCO3)o1 | i | -5.0%
O=C(CSc1nnc(-c2ccc(O)cc2)o1)N1CCOCC1 | -11.3% | -9.6%
COc1ccccc1C(=O)NNC1CC(=O)N(c2ccc3c(c2)OCCO3)C1=O (centres undefined) | -13.6% | -12.0%
CNC(=O)c1cc(C(=O)c2ccccc2Br)c[nH]1 | -1.2% | -7.0%
COc1ccc(-c2cn(-c3ccc(C)c(C)c3)c(=S)[nH]2)cc1OC | -2.4% | -10.1%
CCc1ccc(OCCOCC(O)CN(CCO)CCO)cc1 (centres undefined) | i | -4.0%
CCOC(=O)C1CCCN(C(=O)c2cc(S(=O)(=O)N3CCCCC3)ccc2Cl)C1 (centres undefined) | -3.0% | -16.6%
COc1ccc(OC)c(CNC(=O)c2c(C)oc3ncn(CC(C)C)c(=O)c23)c1 | ? | -17.4%
O=S(=O)(c1cccnc1)N1CCn2cccc2C1c1ccccc1F (centres undefined) | i | -11.5%
Cc1ccccc1Sc1ncccc1[N+](=O)[O-] | -4.6% | -4.7%
OC12CCCCC1C(c1ccc3c(c1)OCO3)N(Cc1ccc(F)cc1)CC2 (centres undefined) | -7.6% | -12.3%
CCOc1ccc(CN(C)CC(=O)Nc2cc(C)c(C)cc2[N+](=O)[O-])cc1 | -2.0% | -8.6%
CCOC(=O)c1c(-c2ccncc2)csc1N | -24.5% | -8.2%
COc1cc2ccccc2cc1C(=O)Nc1ccc2oc(-c3cccc(Cl)c3Cl)nc2c1 | -14.6% | ?
CN1CC2(C)CN(C(c3ccccc3)c3ccccc3)CC(C)(C1)C2O (centres undefined) | . | 4.9%
O=C(Nc1ccc(F)c(Cl)c1)c1ccc2c(c1)OCO2 | -3.3% | -2.4%
Cc1cccc(NC(=O)CSCC(=O)Nc2ccccc2C(=O)N2CCCCC2)c1 | -23.8% | -15.8%
CS(=O)(=O)N1CCN(c2ccc([N+](=O)[O-])c(NCc3cccnc3)c2)CC1 | i | -17.0%
COc1cccc(-n2nc3c(=S)[nH]nc(C)c3c2C)c1 | -12.5% | -6.0%
CC1=C(C(=O)N2CCCC(N3CCN(c4cccc(Cl)c4)CC3)C2)OCCO1 (centres undefined) | -16.8% | -11.0%
Fc1ccccc1CNc1cc(Cl)cc(Cl)c1 | -13.6% | -10.1%
CN(CCOc1ccc(Cl)cc1)C(=O)c1ccc2c(=O)n3c(nc2c1)CCC3 | i | -9.6%
CC(C)N(C1=CC(=O)OC12CCCCC2)C(C)C | i[7.34 µM] | 4.2%[7.34 µM]
O=C(/C=C/c1ccccc1)NCCS(=O)(=O)N1CCN(c2ccccc2)CC1 | -16.0% | -18.3%
Cc1nonc1CN(C)C(=O)c1ccc(OC2CCN(Cc3ccccn3)CC2)cc1 | -1.3% | 0.0%
CCCCn1nnnc1C(c1ccc(OC)cc1)N1CCC2(CC1)C(=O)NCN2c1ccccc1 (centres undefined) | -18.4% | -14.4%
CCCCC[C@H](C)N1C[C@H](COCc2ccccc2)Oc2cc(N3CC[C@H](N(C)C)C3)ccc2S1(=O)=O | -15.3% | -15.0%

Assay outcomes (PubChem BioAssay)
